# Vaccinia stage = blocks a specific stage of Vaccinia orthopoxvirus infection. Vaccinia-infected cells, mCherry/Venus stage reporter fluorescence; hits give low values; some inactives read as strong as hits. activity change (mCherry), % (concentration not given with the values). hit rate 0.01% among 89,000;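 active = mCherry past -33% and 40 or more points under the early reporter, replicates agreeing; inconclusive = past -33% without that gap or agreement; tested in A549 cells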;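 also: scaled between vehicle wells and reference inhibitor wells; 23 nL library stock went into each well; one replicate is shown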
# Vaccinia stage Venus = recorded beside Vaccinia stage, whose call it bears; activity change (Venus), %; measured here: Venus reporter, other viral stage;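 negative = less Venus signal; first of two replicates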
# * marks the source's active call; other numbers are inactive results; ? = inconclusive; · = not tested or not shown. A portion of the library; count on the stated rates, not on these rows.
item | SMILES | Vaccinia stage | Vaccinia stage Venus
1 | COc1ccccc1CN1[C@H](C(=O)NCc2ccccc2)[C@@H](CO)[C@@H]2Cn3c(cccc3=O)[C@@H]21 | 1.8 | 7.0
2 | COc1ccccc1NC(=O)N[C@@H]1CC[C@H](CCNS(=O)(=O)c2ccc(C)cc2)O[C@@H]1CO | 18.0 | -2.5
3 | Cc1ccccc1CN(C)C[C@@H]1OCc2cnnn2CCCC(=O)N([C@@H](C)CO)C[C@H]1C | 7.4 | 12.0
4 | C[C@H](NC(=O)C[C@H]1C[C@@H]2c3cc(N(C)C)ccc3O[C@@H]2[C@H](CO)O1)c1ccccc1 | 6.1 | 3.4
5 | C[C@H]1CN([C@@H](C)CO)C(=O)CCCn2cc(nn2)CO[C@H]1CN(C)C(=O)Oc1ccc2ccccc2c1 | -4.7 | -8.2
6 | C[C@@H]1CN([C@H](C)CO)S(=O)(=O)c2ccc(C#CC3CC3)cc2O[C@H]1CN(C)Cc1ccc(F)cc1 | -14.8 | -10.9
7 | O=C(C[C@@H]1C=C[C@H](NC(=O)NC2CCCCC2)[C@@H](CO)O1)NCc1ccc(Cl)cc1 | 9.0 | 11.3
8 | Cc1cc(C(=O)Nc2cccc3c2O[C@@H](CN(C)Cc2ccc(C(=O)Nc4ccccc4N)cc2)[C@H](C)CN([C@H](C)CO)C3=O)n(C)n1 | -6.7 | 6.1
9 | CCN(C[C@H]1N[C@@H](CO)[C@@H]1c1ccc(-c2cccc(C#N)c2)cc1)C(=O)COC | 16.3 | 17.0
10 | COc1ccc(CN(C)C[C@H]2Oc3c(NS(=O)(=O)c4ccc(Cl)cc4)cccc3C(=O)N([C@@H](C)CO)C[C@H]2C)cc1 | -11.3 | -6.5
11 | C[C@H]1CN([C@@H](C)CO)C(=O)Cc2cc(N(C)C)ccc2O[C@H]1CN(C)Cc1ccc2c(c1)OCO2 | 1.2 | 5.4
12 | CCC(=O)N(C)C[C@@H]1Oc2ncc(C#C[C@@H](C)O)cc2C(=O)N([C@H](C)CO)C[C@@H]1C | 18.1 | 14.2
13 | O=C(C1CCC1)N1C[C@H]2[C@@H](c3ccccc31)[C@H](CO)N2C(=O)c1ccccc1 | 1.4 | 10.4
14 | C[C@H](CO)N1C[C@H](C)[C@@H](CN(C)C(=O)C2CCOCC2)Oc2ncc(C3=CCCC3)cc2C1=O | 1.9 | 3.2
15 | O=C(C[C@H]1CC[C@@H](NC(=O)c2ccc3c(c2)OCO3)[C@H](CO)O1)NCc1ccc(Cl)cc1 | 3.0 | 1.9
16 | C[C@@H]1CN([C@H](C)CO)C(=O)Cc2cc(NC(=O)Nc3ccc(C(F)(F)F)cc3)ccc2O[C@H]1CN(C)S(=O)(=O)c1cccs1 | -3.9 | 8.2
17 | CCS(=O)(=O)Nc1ccc2c(c1)C(=O)N(C)C[C@@H](OC)[C@@H](C)CN(C(=O)COC)[C@@H](C)CO2 | 9.9 | 5.7
18 | C/C=C/c1ccc([C@@H]2[C@H](CO)N3C(=O)CN(C(=O)c4ccncc4)C[C@@H]23)cc1 | 12.8 | 12.0
19 | CCC(=O)NC[C@H]1N[C@H](CO)[C@@H]1c1ccc(-c2cccnc2)cc1 | -3.1 | -3.6
20 | C[C@H]1CN([C@@H](C)CO)C(=O)c2cc(C#Cc3ccccc3F)cnc2O[C@H]1CN(C)C(=O)Cc1ccccc1 | -31.0 | -19.2
21 | C[C@H](CO)N1C[C@H](C)[C@@H](CN(C)C(=O)Nc2ccc(F)cc2)Oc2ccc(NS(=O)(=O)c3ccccc3)cc2C1=O | 15.8 | 8.0
22 | CCCC#Cc1cnc2c(c1)C(=O)N([C@H](C)CO)C[C@@H](C)[C@H](CN(C)C(=O)c1cnccn1)O2 | 10.5 | 0.8
23 | CN1C(=O)c2cc(NC(=O)c3ccc(F)cc3)ccc2OC[C@H]2O[C@H](CC(=O)N3CCOCC3)CC[C@H]21 | 6.5 | 2.8
24 | CCS(=O)(=O)Nc1ccc2c(c1)C(=O)N(C)C[C@H](OC)[C@@H](C)CN[C@H](C)CO2 | -2.5 | 2.0
25 | C[C@H](CO)N1C[C@H](C)[C@H](CN(C)Cc2cccnc2)Oc2cc(Br)ccc2S1(=O)=O | 0.4 | -4.9
26 | C[C@H]1CN([C@@H](C)CO)C(=O)c2cc(C#Cc3ccc(F)cc3)cnc2O[C@H]1CN(C)C | -18.3 | -18.8
27 | C[C@@H]1CCCCO[C@@H](CN(C)CC2CCCCC2)[C@H](C)CN([C@H](C)CO)C(=O)c2cc(NS(C)(=O)=O)ccc2O1 | -7.6 | -3.5
28 | COc1ccc(C#Cc2ccc3c(c2)[C@@H]2[C@@H](CCN2S(=O)(=O)c2cccc(OC)c2)[C@@H](CO)N3)cc1 | 7.1 | -4.2
29 | Cc1ccc(S(=O)(=O)Nc2ccc3c(c2)C(=O)N([C@@H](C)CO)C[C@@H](C)[C@H](CN(C)CC2CC2)O3)cc1 | 16.7 | 11.6
30 | C[C@H](CO)N1C[C@H](C)[C@H](CN(C)C(=O)Nc2ccc3c(c2)OCO3)OCCCC[C@H](C)Oc2ccc(NC(=O)c3ccncc3)cc2C1=O | -1.7 | -7.5
31 | O=C(C[C@H]1CC[C@H]2[C@@H](COC[C@H](O)CN2Cc2cc(F)ccc2F)O1)NCc1ccc(F)cc1 | -11.0 | -16.2
32 | COc1ccc(S(=O)(=O)N(C)C[C@H]2Oc3c(NC(=O)NC(C)C)cccc3C(=O)N([C@@H](C)CO)C[C@@H]2C)cc1 | -1.5 | -7.6
33 | C[C@@H]1CN([C@@H](C)CO)C(=O)c2cc(-c3cccc(F)c3)cnc2O[C@@H]1CN(C)C(=O)Nc1cc(F)ccc1F | -12.2 | -8.1
34 | COc1ccc(NC(=O)Nc2cccc3c2O[C@H](CN(C)C)[C@H](C)CN([C@@H](C)CO)C3=O)cc1 | 10.9 | 2.9
35 | O=C(C[C@@H]1CC[C@@H]2[C@H](COC[C@@H](O)CN2C(=O)Nc2ccc(C(F)(F)F)cc2)O1)NCC1CCCCC1 | ? | ·
36 | COc1ccccc1C#Cc1ccc2c(c1)[C@H]1NCC[C@H]1[C@@H](CO)N2 | -6.3 | -0.4
37 | O=C(NCC[C@@H]1CC[C@@H](NC(=O)C2CC2)[C@H](CO)O1)c1ccc(F)cc1 | 2.8 | -4.2
38 | C[C@@H]1CN([C@H](C)CO)C(=O)c2cc(NC(=O)CCCCCC(=O)Nc3ccccc3N)ccc2O[C@H]1CN(C)C(=O)NC1CCCCC1 | 9.4 | 6.1
39 | CC(C)NC(=O)N(C)C[C@@H]1Oc2ccc(NS(=O)(=O)c3ccccc3)cc2CC(=O)N([C@@H](C)CO)C[C@H]1C | 11.0 | -1.8
40 | C[C@@H]1CN([C@@H](C)CO)C(=O)c2cccc(NS(=O)(=O)c3cccs3)c2O[C@H]1CN(C)Cc1ccc(C(=O)Nc2ccccc2N)cc1 | 18.7 | 6.2
41 | C[C@H]1CN([C@@H](C)CO)C(=O)c2cccc(NC(=O)CCCCCC(=O)Nc3ccccc3N)c2O[C@@H]1CN(C)S(=O)(=O)c1ccc(Cl)cc1 | -2.2 | -2.5
42 | CCCC(=O)N1CC2(C1)CN(C(=O)Nc1cccc(F)c1)[C@@H](CO)c1c2c2ccc(OC)cc2n1C | 2.2 | -2.5
43 | COc1ccc(C(=O)Nc2ccc3c(c2)C(=O)N(C)[C@@H]2CC[C@H](CC(=O)NCC4CC4)O[C@@H]2CO3)cc1 | -12.1 | -5.7
44 | CO[C@@H]1CN(C)C(=O)c2cc(NC(=O)CC(F)(F)F)ccc2OC[C@@H](C)N(S(=O)(=O)c2cn(C)cn2)C[C@@H]1C | 21.3 | 14.9
45 | C/C=C/c1ccc([C@H]2[C@@H](CO)N3CCCCN(C)C[C@H]23)cc1 | 15.1 | -3.1
46 | C[C@@H]1CN([C@H](C)CO)C(=O)c2cc(NC(=O)Nc3ccc(C(F)(F)F)cc3)ccc2O[C@@H]1CN(C)Cc1ccc(Cl)c(Cl)c1 | ? | ·
47 | C[C@@H]1CN([C@H](C)CO)C(=O)c2cc(NC(=O)c3ccncc3)ccc2O[C@@H](C)CCCCO[C@@H]1CN(C)C(=O)Nc1cccc2ccccc12 | 27.4 | 15.2
48 | Cc1ccc(-c2ccc3c(c2)O[C@@H](CN(C)C(=O)C2CCC2)[C@@H](C)CN([C@H](C)CO)S3(=O)=O)cc1 | 8.4 | 1.4
49 | CC(C)NC(=O)Nc1ccc2c(c1)C(=O)N([C@H](C)CO)C[C@@H](C)[C@@H](CN(C)S(=O)(=O)c1ccccc1)O2 | 4.5 | -4.1
50 | COc1ccc(S(=O)(=O)N(C)C[C@@H]2Oc3c(NS(=O)(=O)c4cn(C)cn4)cccc3C(=O)N([C@H](C)CO)C[C@@H]2C)cc1 | 9.4 | 6.9

# The list goes on.
# Values run as follows: Vaccinia stage, Vaccinia stage Venus
51. CCCC#Cc1ccc2c(c1)O[C@@H](CN(C)C(=O)c1cccnc1)[C@H](C)CN([C@H](C)CO)S2(=O)=O
 : 20.8, 11.9
52. C[C@H](NC(=O)C[C@@H]1C[C@H]2c3cc(NC(=O)C4CCC4)ccc3O[C@H]2[C@H](CO)O1)c1ccccc1
 : -3.5, 0.5
53. C[C@@H]1CN([C@H](C)CO)S(=O)(=O)c2ccc(-c3ccccc3)cc2O[C@@H]1CN(C)C(=O)Cc1ccccc1
 : ?, ·
54. COCC(=O)Nc1ccc2c(c1)C(=O)N(C)C[C@H](OC)[C@H](C)CN(C(=O)c1ccccn1)[C@@H](C)CO2
 : 12.9, 10.5
55. C[C@@H]1CCCCO[C@@H](CN(C)Cc2ccccc2)[C@@H](C)CN([C@H](C)CO)C(=O)c2cc(NC(=O)Nc3ccc(F)cc3)ccc2O1
 : -28.0, -9.7
56. COCC(=O)N(C)C[C@H]1Oc2ncc(C#Cc3ccc(OC)cc3)cc2C(=O)N([C@H](C)CO)C[C@@H]1C
 : 6.6, 1.3
57. O=C(O)C[C@H]1CC[C@H](NC(=O)Nc2ccccc2)[C@H](CO)O1
 : -0.5, 2.7
58. C[C@@H]1CN([C@@H](C)CO)C(=O)c2cc(NC(=O)C3CCCCC3)ccc2O[C@H]1CN(C)Cc1ccc2c(c1)OCO2
 : -8.1, 1.2
59. C[C@@H]1CCCCO[C@H](CN(C)S(=O)(=O)c2ccccc2)[C@@H](C)CN([C@@H](C)CO)C(=O)c2cc(NC(=O)Nc3ccc(C(F)(F)F)cc3)ccc2O1
 : -10.8, -4.2
60. CCCC#Cc1ccc([C@@H]2[C@@H](CO)N3CCCCN(CC4CC4)C[C@H]23)cc1
 : -18.8, -2.9
61. C[C@@H]1CCCCO[C@@H](CN(C)Cc2ccccc2)[C@@H](C)CN([C@@H](C)CO)C(=O)c2cc(NC(=O)Nc3ccccc3)ccc2O1
 : ?, ·
62. CCCNC(=O)N(C)C[C@@H]1Oc2cc(C#CC3CC3)ccc2S(=O)(=O)N([C@H](C)CO)C[C@@H]1C
 : 8.8, 8.2
63. C[C@@H]1CN([C@@H](C)CO)C(=O)Cc2cc(NC(=O)Nc3cccc4ccccc34)ccc2O[C@H]1CN(C)S(=O)(=O)c1ccccc1
 : 10.1, 6.1
64. C[C@@H]1CN([C@@H](C)CO)C(=O)c2cc(C#CC(C)(C)O)cnc2O[C@H]1CN(C)Cc1cncnc1
 : 15.3, 6.6
65. O=C(Nc1ccccc1)N1CCCCN2[C@H](CO)[C@H](c3ccc(-c4ccncc4)cc3)[C@H]2C1
 : 29.4, -1.7
66. C[C@H]1CN([C@@H](C)CO)C(=O)c2cc(C3=CCCCC3)cnc2O[C@@H]1CN(C)C(=O)Nc1cccc(F)c1
 : -13.5, -17.3
67. O=C(C1CC1)N1CC2(C1)[C@@H](c1ccccc1)[C@@H](CO)N2C(=O)c1cccnc1
 : -1.5, -1.5
68. CC(=O)N1CC[C@@H]2[C@H]1c1cc(-c3ccc(C#N)cc3)ccc1N(C)[C@H]2CO
 : -1.6, 1.8
69. CC(C)(C)[S@](=O)N1Cc2cc(C(=O)N3CCCCC3)nc(-c3cccc(-c4ccc(F)cc4)c3)c2[C@@H]1CCO
 : ?, ·
70. COc1ccc(NC(=O)N(C)C[C@H]2Oc3ccc(NC(=O)Cn4cnnn4)cc3CC(=O)N([C@H](C)CO)C[C@H]2C)cc1
 : 8.6, 14.1
71. O=C(C[C@@H]1CC[C@@H]2[C@H](COC[C@H](O)CN2C(=O)Nc2ccc(Cl)cc2)O1)NCCc1ccncc1
 : 0.4, -7.4
72. CCCC#Cc1ccc2c(c1)O[C@H](CN(C)Cc1cccnc1)[C@@H](C)CN([C@H](C)CO)S2(=O)=O
 : -33.5, -37.1
73. Cc1noc(C)c1NC(=O)N(C)C[C@@H]1Oc2ccc(N(C)C)cc2C(=O)N([C@H](C)CO)C[C@@H]1C
 : 0.4, 0.2
74. C[C@@H]1CN([C@H](C)CO)C(=O)c2cc(C#Cc3ccc(F)cc3)cnc2O[C@@H]1CN(C)S(C)(=O)=O
 : -0.7, 3.0
75. COCC(=O)Nc1ccc2c(c1)OC[C@@H](C)N(Cc1ccccc1F)C[C@@H](C)[C@H](OC)CN(C)C2=O
 : -5.2, -8.3
76. CC=Cc1ccc2n(c1=O)C[C@H]1[C@H](CO)[C@@H](C(=O)NCc3ccncc3)N(Cc3ccncc3)[C@@H]21 (mixture of isomers)
 : 5.1, 14.2
77. Cc1noc(C)c1NC(=O)Nc1ccc2c(c1)CC(=O)N([C@H](C)CO)C[C@H](C)[C@@H](CN(C)S(C)(=O)=O)O2
 : 14.1, 14.6
78. O=C(C[C@H]1CC[C@@H]2[C@H](COC[C@H](O)CN2Cc2cc(F)ccc2F)O1)NCc1ccc(Cl)cc1
 : ?, ·
79. CC=Cc1ccc2n(c1=O)C[C@H]1[C@H](CO)[C@@H](C(=O)NCc3ccccc3F)N(CC)[C@@H]21 (mixture of isomers)
 : 5.5, 6.1

# Source: PubChem BioAssay
